# Assay outcomes: PubChem, National Center for Advancing Translational Sciences (NCATS)
# ClpP mod = qHTS Assay for Activators of ClpP; purified B. subtilis ClpP, FRET peptide cleavage, 20 min; Potency, µM (titrated, usually from 57.5 µM), for inactives: at the highest dose activity change, negative = active; actives 1.9% (n = 340,000); AID 651965, 2013; active = well fitted falling curve with a large enough effect; inconclusive = small, poorly fitted or top-dose-only effect; inactive = no such curve, though single readings can be large or run the other way; also: potency is read from the fitted curve at half-maximal effect; the source files actives as falling curves though it sought activators and does not explain the sign; nearly all actives have a fitted effect of over 65% in size; many hits overshoot -100%
# Target sequence (P80244 whole entry, looked up): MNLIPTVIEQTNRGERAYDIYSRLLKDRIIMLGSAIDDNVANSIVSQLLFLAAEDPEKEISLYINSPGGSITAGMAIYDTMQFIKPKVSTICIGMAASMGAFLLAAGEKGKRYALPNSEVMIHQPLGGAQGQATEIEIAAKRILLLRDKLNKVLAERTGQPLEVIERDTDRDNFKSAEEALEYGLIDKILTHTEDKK
#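 Buffer: 100 mM Tris/HCl pH8, 100 mM KCl, 0.05% low protease BSA, 2.5% glycerol, 0.01% Tween-20. ClpP 10 microg/mL final; 20 min RT; delta FRET normalized to ADEP and DMSO controls.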
# D2 ag = agonists of human D2 dopamine receptor (beta-arrestin); P14416; DiscoveRx PathHunter D2 beta-arrestin, luminescence, 90 min; 100% = 57 uM dopamine signal; activation, % (no concentration beside the values); actives 0.084% (n = 360,000); in the data active = activation above about 40%; inconclusive = about 15% to 40%; inactive = below about 15%; also: compound concentration not given in the record; the text of the record calls up to 30% inactive
# Target sequence (P14416 whole entry, looked up): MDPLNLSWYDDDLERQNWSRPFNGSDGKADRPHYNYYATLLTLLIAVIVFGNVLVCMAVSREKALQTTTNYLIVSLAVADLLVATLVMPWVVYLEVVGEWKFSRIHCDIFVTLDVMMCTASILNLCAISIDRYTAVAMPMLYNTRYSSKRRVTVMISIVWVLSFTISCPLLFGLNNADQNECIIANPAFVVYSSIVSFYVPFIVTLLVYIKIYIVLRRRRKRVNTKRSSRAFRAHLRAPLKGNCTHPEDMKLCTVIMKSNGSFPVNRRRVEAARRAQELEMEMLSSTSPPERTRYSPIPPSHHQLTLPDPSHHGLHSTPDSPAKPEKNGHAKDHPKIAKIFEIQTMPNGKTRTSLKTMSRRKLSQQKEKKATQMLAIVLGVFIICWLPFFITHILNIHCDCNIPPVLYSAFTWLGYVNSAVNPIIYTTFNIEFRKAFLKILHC
#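 Agonist mode: compounds alone added to overnight-plated D2 PathHunter cells for 90 min at 37 C, with 57 uM final dopamine (EC100) defining full response. Beta-arrestin recruitment detected by chemiluminescent reagent, read after 1 h at ambient temperature.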
# Menin MLL FP FL = menin-MLL binding inhibition, fluorescein peptide | FP activity change, % at 61.4 µM | 290,000 tested, under 10 active | Fluorescence polarization, fluorescein-MLL peptide displacement from menin; inconclusive = falling polarisation curve, or a change in total fluorescence; inactive = total fluorescence flat and polarisation flat or rising; no compound was filed as active; the % refers to the polarisation; negative = inhibition;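 also: % of control where 0% means no effect; inhibitors lower the polarisation; unlabelled MLL peptide was the positive control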
# PINK1 modulator = modulators of PINK1 expression | Potency, µM (series often up to 76.6 µM), for inactives: top-dose activation (PINK1 increase), hits mostly activators | PINK1 immunofluorescence, high-content cytometry, 24 h | actives 0.2% (n = 410,000); active = well fitted activation curve with a large enough effect; inconclusive = small, poorly fitted or top-dose-only effect; inactive = flat fitted curve, though single readings scatter; cell line not stated here;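 also: potency is read from the fitted curve at half-maximal effect; % of control where 0% means no effect; nearly all actives have a fitted effect of over 65% in size; a mitochondrial uncoupler was the plate control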
#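 Fluorescence from anti-PINK1 antibody, together with nuclear and cell stains, was scanned on a laser-scanning cytometer. Before staining, stable-line cells were incubated 24 hours with compounds at 5 concentrations; primary antibody 12 h at 10 degrees C.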
# gsp antagonist = antagonizes gsp, the McCune-Albright syndrome mutation; Potency, µM (doses to about 76.9 µM), for the others: top-dose activity change, negative = inhibition, usual class: inhibitors; gsp-mutant cells, cAMP HTRF, 30 min; control for the full effect not named in the record; actives 0.4% (n = 340,000); active = falling curve of any shape with a large fitted effect; inconclusive = falling curve, mostly with a smaller effect; inactive = flat or rising curve; cell line not stated here;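 also: intracellular cAMP measured with PDE inhibitor Ro 20-1724 present during compound exposure; potency is read from the fitted curve at half-maximal effect; % is scaled to controls: 0 for no effect and ±100 for the full control effect; nearly all actives have a fitted effect of over 65% in size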
#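 Measurement of cellular cAMP by homogeneous time-resolved fluorescence following a 30 min compound exposure at 37C. The PDE inhibitor […] was present throughout; the assay buffer was DPBS with 0.05% BSA and 0.005% Tween 20.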
# gsp ag = activates gsp, the McCune-Albright syndrome mutation; gsp mutant cells, cAMP HTRF, 30 min; control for the full effect not named in the record; Potency, µM (highest dose often 76.9 µM), inactives show top-dose activation (cAMP increase), usual class: activators; actives 0.13% (n = 340,000); AID 624287; active = well fitted activation curve with a large enough effect; inconclusive = small, poorly fitted or top-dose-only effect, or another doubt; inactive = no such curve, though single readings can be large or run the other way; cell line not stated here;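 also: phosphodiesterase inhibitor Ro 20-1724 added with compounds to block cAMP breakdown; potency is read from the fitted curve at half-maximal effect; nearly all actives have a fitted effect of over 60% in size; about a fifth of the inactives were tested at one dose only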
#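 Cells in DMEM/10% FBS with G418 were pretreated with compounds in DMSO plus […] (300 uM stock) for 30 min at 37C. cAMP was measured by HTRF (cAMP-d2 plus anti-cAMP antibody-K) after 30 min at room temperature.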
# Sfp inh = inhibitors of Bacillus subtilis Sfp phosphopantetheinyl transferase; AID 1490; Biochemical Sfp PPTase activity, qHTS; Q9F4F7; Potency, µM, inactives show max response, negative = inhibition, hits mostly inhibitors; actives 3.5% (n = 310,000); active = well fitted inhibition curve with a large enough effect; inconclusive = small, poorly fitted or top-dose-only effect, or another doubt; inactive = no such curve, though single readings can be large or run the other way;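 also: the enzyme is Sfp with the accession as filed and its product quenches rhodamine fluorescence; potency is read from the fitted curve at half-maximal effect; 0% = enzyme reaction without inhibitor and -100% = no enzyme wells; top concentration of the series not given in the record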
#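 Fluorescence-quenching assay: 15 nM Sfp-PPTase preincubated 15 min at room temperature with compound, then 5 uM rhodamine-CoA and 12.5 uM BHQ-2-labelled YbbR peptide added. Fluorescence (ex 525/em 598 nm) read at start and after 30 min; difference gives rate.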
# * hit, by the source's call; u = inconclusive; x = not tested or not shown; & = joins results of further samples; [ ] = remark or other dose.
SMILES	ClpP mod	D2 ag	Menin MLL FP FL	PINK1 modulator	gsp antagonist	gsp ag	Sfp inh
CCN1CCCC1CN(Cc1cc2ccc(C)cc2[nH]c1=O)C(=S)Nc1ccc(OC)cc1 (configuration not stated)	1.5%	-5.2	0.5	-1.1%	-5%	-14%	9%
COc1ccc(CCNC(=O)c2cc(COc3c(C)cccc3C)on2)c(OC)c1	2.1%	-6.4	-8.1	12%	-4%	-14%	12%
CCOc1ncccc1C(=O)NNC(=O)c1ccccc1-n1cccc1	-3.7%	-3.6	x	0.4%	10%	5%	12%
COCCn1c(=O)c(CCc2ccccc2)nc2cnc(Oc3ccccc3)nc21	x	x	5.1	0.4%	x	x	13%
CC(=O)C[C@H]1c2ccccc2S(=O)(=O)N1C1CCCC1	-2.1%&3.6%	-6.9	x	0.5%	2%	-7%	x
O=C(Nc1ccc(Cl)cn1)c1ccc2[nH]c(=O)c(=O)[nH]c2c1	-18%	3.0	-1.9	-0.4%	-13%	4%	17%
COc1cccc(OCC(=O)Nc2ccccc2-c2ccccc2)c1	x	3.0	-0.8	-0.1%	-20%	-2%[15.4 µM]	-11%
COc1cc2[nH]c(=S)n(CCCN3CCOCC3)c(=O)c2cc1OC	-3.9%	-3.8	1.8	-1.0%[38.3 µM]	5%	15%	u
Cc1ccc(CCCOC(=O)C[N+]2(C)CCCCC2)cc1	1.1%	-1.0	-0.3	2.0%	12%	-5%[15.4 µM]	-28%
COc1ccccc1N1CCN(Cc2cccc(OC)c2OC)CC1	-0.1%	-2.4	0.3	x	-6%	1%	-3%
O=c1sc(Nc2ccccc2)nc2ccccc12	x	-0.3	-0.8	0.8%	12%	-8%[15.4 µM]	13%
Cc1ccc(N2NC(=O)/C(=C/C=C/c3ccco3)C2=O)cc1C	x	0.0	0.9	-0.6%	-3%	20%	-2%
CN(C)CCOC(=O)c1ccc2[nH]c3c(c2c1)CSCC3	x	-3.0	1.1	3.7%	11%	-13%[15.4 µM]	2%
CC(=O)N(CN1C(=O)CCC1=O)c1cccc(Cl)c1	1.3%	1.6	-3.2	2.8%	11%	-15%[15.4 µM]	-6%
CC(C)CC1C(=O)N(Cc2cn(CCC3OCCO3)nn2)CCS(=O)(=O)N1Cc1ccc(-c2cccc(N(C)C)c2)cc1 (configuration not stated)	3.7%	-3.0	x	-0.2%	x	u	x
CN1CCN(Cc2ccc(OCc3ccccc3)cc2)CC1	0.2%	-1.1	0.3	0.1%[38.3 µM]	12%	-35%[inhibitor]	3%
CC1CC(C)(C)NC(=S)N1CC(=O)NCc1ccc(F)cc1 (configuration not stated)	-8.2%	3.3	4.3	1.4%	-1%	3%[15.4 µM]	4%
CCN(CC)CCCn1c2c(c(SCC(=O)Nc3ccc(F)c(F)c3)nc1=O)CCC2	0.2%	-5.5	x	-0.9%	9%	-3%[15.4 µM]	x
CC(=O)Nc1ccc(N(C)C)cc1[N+](=O)[O-]	-3.8%	2.2	0.3	-1.7%	-31%	-61%[inhibitor]	-17%
COC(=O)CNC(=O)CSc1nnc2cc(C)c3ccccc3n12	-14%	-8.5	1.5	-0.1%	7%	u	2%
Cc1ccc(CNc2nc(C)c(C(=O)N(C)C)s2)cc1	x	-0.3	-5.2	5.8%	0%	20%	4%
CN1CC(c2ccccn2)C2(SC(=S)N(Cc3ccccc3)C2=O)C12C(=O)Nc1ccccc12 (configuration not stated)	-6.1%	0.8	-2.2	-6.1%[38.3 µM]	-15%	15%	-31%
Cc1c(C(=O)N2CCOCC2)oc2ccc(Br)cc12	1.1%	0.3	x	3.6%	12%	-59%[inhibitor]	x
Cc1nn(C(C)C(=O)NC(C)CCc2ccccc2)c(=O)c2cc3occc3n12 (configuration not stated)	-1.1%	-5.6	2.8	-0.7%	10%	u	6%
Cc1cc(C)c(C)c(S(=O)(=O)Nc2cccc(-n3cnnn3)c2)c1C	x	8.1	x	8.1%	-15%	-22%	16%
O=C(NC1CCCCC1)c1cc(-c2cccc(Cl)c2)on1	x	-3.0	3.7	7.2%	11%	-6%[15.4 µM]	12%
CCc1nc(SCC(=O)Nc2nc3c(s2)CCCC3)c2ccccc2n1	-0.4%	-1.8	4.3	-4.7%	20%	18µM*	-6%
CCOc1ccc(C(=O)N2CCCC2)cc1	-2.9%	-2.9	-0.4	0.6%[38.3 µM]	7%	8%	-8%
Cc1cc(C)c2cc3c(N)c(C(=O)N4CCc5ccccc5C4)sc3nc2c1	-11%	1.6	u	x	-1%	u	-16%
CC(C)(C)NC(=O)N1CCN(c2nc(-c3ccccc3)ns2)CC1	-3.1%	-1.3	20	-0.2%	-3%	-16%[15.4 µM]	10%
CCn1c(SCc2ccccc2)nc2cc(S(N)(=O)=O)ccc21	x	3.5	-2.2	-1.7%	4%	-45%[inhibitor]	3%
CCOC(=O)N1CCN(C(=O)COC(=O)c2ccc([N+](=O)[O-])cc2Cl)CC1	x	u	x	0.2%	6%	17%[15.4 µM]	x
CCOc1ccc(NC(=O)CCC(=O)c2ccc(-c3ccccc3)cc2)cc1	1.5%	0.3	7.5	1.5%	2%	-1%[15.4 µM]	9%
COc1ccccc1NC(=O)COc1ccc(Br)cc1CNCCCN1CCOCC1	0.6%	0.3	-0.2	-0.9%	0%	-35%[inhibitor]	9%
CCOC(=O)c1sc(=NC(=O)c2ccc(F)cc2)n(C)c1C	-9.8%	-2.2	x	6.4%	-3%	u	15%
Cc1cc([N+](=O)[O-])c2[nH]c(C(=O)N/N=C/c3ccccc3C(=O)O)c(-c3ccccc3)c2c1	1.6%	-1.7	8.1	-6.2%[38.3 µM]	-27%	4%	u
N#Cc1nc(-c2ccccc2)oc1NCc1ccco1	4.8%	-1.0	1.8	2.0%	1%	18%	-5%
COc1ccc(-n2c(C)cc(C(=O)COC(=O)Cn3cnc4ccccc43)c2C)cc1	-10%	2.2	0.9	0.6%	-50%	7%	-13%
CN(CC(=O)Nc1ccc(Cl)cc1)C(=O)CCC1CCCC1	-1.0%	-2.5	-1.8	5.0%	7%	u	8%
CCOc1ccccc1N(C(=O)c1snc(C(N)=O)c1N)C(C(=O)NCC1CCCO1)c1ccc2ncccc2c1 (configuration not stated)	x	1.5	1.7	-1.3%	-1%	20%	14%
O=[N+]([O-])c1ccc(O)c(CSc2nnnn2-c2ccccc2)c1	-0.9%	-0.5	2.4	-1.0%	-9%	7%[15.4 µM]	0%
CC1CC(=O)N(CC(=O)Nc2ccc3c(c2)OCO3)c2ccccc2S1 (configuration not stated)	-1.7%	-0.6	7.9	-0.3%[38.3 µM]	-12%	-6%	3%
CN(C)c1ccc(-c2ccnc3c2CC(C)(C(=O)Nc2cccc(Oc4ccccc4)c2)O3)cc1 (configuration not stated)	5.0%	-2.2	x	5.2%	x	x	x
CC(C)(C)OC(=O)N1Cc2ccccc2C[C@H]1C(=O)NCC(=O)NCC1CCCO1 (some centres not stated)	0.8%	-7.8	-0.2	-0.4%	-17%	-5%	9%
COc1cccc(/C=C/c2[nH]c(=O)[nH]c(=O)c2[N+](=O)[O-])c1O	-0.9%	-2.0	-0.3	0.3%	4%	-1%[15.4 µM]	-9%
O=C(COC(=O)c1ccccc1)NC(=O)NC1CCCC1	x	5.2	x	4.5%	6%	6%[15.4 µM]	x
O=C(Nc1c(C(=O)N2CCCCC2)cnn1-c1ccccc1)c1ccccc1	1.5%	-2.9	-1.7	-0.3%	-4%	37%	-7%
CCCN1Cc2cccc(C(=O)NCCc3cccc(C)c3)c2C1=O	0.3%	0.8	4.9	6.8%	5%	u	-7%
CCOC(=O)c1cccc(NC(=O)CNC(=O)C2CCCCC2)c1	-2.3%	0.3	1.2	-0.5%[38.3 µM]	2%	-14%	2%
COC(=O)CNc1nc(Cl)nc(NC2CCCCC2)n1	-1.6%	2.4	-8.2	0.8%	-1%	u	29%
NNC(=O)c1nnsc1-c1csnn1	0.5%	-2.6	x	-3.2%	-5%	-16%	x
CC1(C)CC(=O)C(C=NCc2ccccn2)=C(O)C1	-0.5%	-1.7	-1.7	-1.1%[38.3 µM]	7%	-34%[inhibitor]	17%
COc1ccccc1NC(=O)C1CCCN(C(=O)NCc2ccccc2)C1 (configuration not stated)	x	6.2	x	1.6%	4%	13%	25%
CCC1C(=O)Nc2ccccc2N1C(=O)c1ccc(Cl)nc1 (configuration not stated)	-1.8%	4.0	-3.7	-0.4%	0%	-40%[inhibitor]	12%
O=C(O)CCc1nc2cc(Cl)ccc2n(Cc2ccccc2)c1=O	x	-1.4	3.8	0.8%	x	10%[15.4 µM]	21%
Fc1ccc(NC(=S)Nc2nccs2)cc1	0.6%	-8.9	-3.2	3.3%	-1%	14%	u

# More results
SMILES	ClpP mod	D2 ag	Menin MLL FP FL	PINK1 modulator	gsp antagonist	gsp ag	Sfp inh
CCOC(=O)Cn1c(-c2ccc(OC)cc2)c(-c2ccc(OC)cc2)nnc1=O	2.7%	-4.3	7.2	-0.1%	-7%	u	23%
O=C(NCCc1ccc2c(c1)OCCO2)c1ccccc1F	-2.4%	-3.7	3.5	-1.1%	-2%	-3%[15.4 µM]	5%
CC(C)(C)C1=Nn2c(nnc2-c2n[nH]c3c2CCC3)SC1	-5.5%	-3.8	3.1	-2.1%	8%	10%	25µM*
O=C1OCc2cc(NC(=O)C3CCCO3)ccc21 (configuration not stated)	-5.9%	-2.6	3.4	-9.9%[38.3 µM]	11%	5%	11%
Clc1ccc(Nc2nc(C3CC3)cs2)cc1	-11%	-4.2	6.2	1.1%	-1%	-20%	u
O=C(Nc1ccccc1)N(O)c1ccc(Cl)cc1	-0.4%	0.6	5.4	-1.7%	1%	22%	-71%
COc1ccc(NC(=O)c2nc(C)c(C3(C)CC(c4ccccc4)=NO3)s2)cc1 (configuration not stated)	-13%	2.4	2.6	7.0%	14%	x	20%
CC(C)OP(=O)(OC(C)C)C(O)c1ccc2c(c1)OCO2 (configuration not stated)	-2.8%	-1.9	8.6	3.8%	2%	-15%	6%
